Screening data: PubChem BioAssay, several laboratories
HIV Env fusion: HIV envelope-mediated fusion inhibition | HeLa-JRFL Env/CEM21 cell fusion, luciferase | inhibition, % at 12.3 µM | hit rate 1.1% among 360,000 | AID 651610;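 active = mean replicate inhibition score of at least 50 and every replicate individually at or above 50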;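 also: 0% = plate neutral controls and 100% = maraviroc near 300 nM; one replicate is shown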
eIF4H FP inh: inhibitors of RNA binding by human eIF4H; Q15056; eIF4H fluorescence polarization binding assay; inhibition, % at 35 µM; hit rate 0.94% among 290,000; AID 2012;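 active = 50% or more with normal probe brightness, or confirmed in later tests; about a fifth of its hits are not listed in these tables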;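 also: calls also rest on retests at 20 µM and on dose response follow-up; 0% = protein and probe with vehicle and 100% = probe without protein; strong numbers were not always called active; many hits fall short of the cut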
CSC inhib: blocks cancer stem cells; cancer stem cell-like cells viability, luminescence; inhibition, % at 7.5 µM; hit rate 1.1% among 300,000; AID 2717;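 active = mean at 75% or more and at least half the replicates too; tested in HMLE shEcad cells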;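 also: 0% = median of negative and 100% = median of positive control wells; the first replicate is given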
PABP polyA inh: PABP-poly(A) binding inhibition. PABP-poly(A) RNA binding, fluorescence polarization. inhibition, % at 35 µM. P11940. hit rate 1% among 290,000;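 active = 50% or more with normal probe brightness, or confirmed in later tests; about a fifth of its hits are not listed in these tables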;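 also: calls also rest on retests at 20 µM and on dose response follow-up; controls were probe without protein and protein plus probe with vehicle; some compounds called inactive have numbers as strong as hits; many hits fall short of the cut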
Target sequence (P11940 whole entry, looked up): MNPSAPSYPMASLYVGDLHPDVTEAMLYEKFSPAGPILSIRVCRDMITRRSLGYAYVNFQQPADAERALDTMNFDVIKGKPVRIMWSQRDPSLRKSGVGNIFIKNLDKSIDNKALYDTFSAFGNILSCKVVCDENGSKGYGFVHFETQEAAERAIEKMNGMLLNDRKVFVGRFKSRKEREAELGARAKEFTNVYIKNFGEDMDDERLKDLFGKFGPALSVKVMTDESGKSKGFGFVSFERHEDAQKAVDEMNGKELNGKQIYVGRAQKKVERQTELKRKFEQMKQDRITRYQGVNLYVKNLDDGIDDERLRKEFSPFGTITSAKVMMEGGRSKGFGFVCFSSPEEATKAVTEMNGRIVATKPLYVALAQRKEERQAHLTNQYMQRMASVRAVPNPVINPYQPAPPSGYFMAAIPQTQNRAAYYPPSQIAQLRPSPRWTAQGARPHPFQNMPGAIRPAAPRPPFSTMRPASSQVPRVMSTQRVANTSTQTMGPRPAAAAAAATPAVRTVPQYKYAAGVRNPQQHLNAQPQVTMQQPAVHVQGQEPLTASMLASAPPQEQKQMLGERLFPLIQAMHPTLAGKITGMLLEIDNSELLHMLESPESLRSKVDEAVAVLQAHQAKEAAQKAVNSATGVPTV
Yeast UUG start: yeast start codon fidelity modulation; S. cerevisiae UUG-firefly luciferase reporter, luminescence/redox ratio; activity score, % at 18.7 µM; hit rate 0.13% among 350,000; AID 602363;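 active = replicate mean at a twofold rise or more, about +100% in these data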;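 also: firefly luciferase made from a UUG start codon reports start codon fidelity; reporter light over untreated wells divided by growth signal over untreated wells; some hits fall short of that in this replicate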
Rce1 inh: yeast Ras-converting enzyme inhibition; Q03530; yeast membranes, quenched prenylated peptide cleavage fluorescence; calls only; hit rate 0.27% among 290,000;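 active = fall in fluorescence gain of 50% or more versus controls, with final raw signal at or below 3038400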;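 also: plate controls were neutral control wells for no effect and wells lacking membranes for full effect; tested at 10 µM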
Target sequence (Q03530 whole entry, looked up): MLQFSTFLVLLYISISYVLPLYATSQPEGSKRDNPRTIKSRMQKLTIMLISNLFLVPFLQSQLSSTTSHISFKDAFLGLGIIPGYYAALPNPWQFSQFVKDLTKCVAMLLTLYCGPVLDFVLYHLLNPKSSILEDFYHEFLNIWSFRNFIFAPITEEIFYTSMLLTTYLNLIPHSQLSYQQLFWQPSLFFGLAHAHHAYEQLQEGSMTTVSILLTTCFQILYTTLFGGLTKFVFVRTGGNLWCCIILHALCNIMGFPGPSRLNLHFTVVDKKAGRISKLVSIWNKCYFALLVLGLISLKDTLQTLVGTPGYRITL
MT1-MMP act inh: MT1-MMP (human) activation inhibition | hit rate 0.061% among 360,000 | HT1080 RFP-PRO-GFP cells, GFP/RFP ratio fluorescence, overnight; percent of plate control window, DMSO zero | GFP/RFP ratio change, % at 20 µM;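 active = GFP/RFP ratio change of at least 30% with cell ATP level not reduced by more than half and red fluorescence within 50% of control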; also: strong numbers were not always called active
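Assay system: RFP-PRO-GFP reporter HT1080 cells; read-out basis: GFP/RFP fluorescence ratio; benchmarks: DMSO wells and RFP-L50D-GFP cells; doses: 20 µM single dose, 1% DMSO; schedule: overnight cell settling, then overnight compound exposure, 37 °C, 5% CO2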
MT1-MMP act inh RFP: also measured in MT1-MMP act inh; calls as there; RFP signal change, %; measured here: RFP expression control read;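 0 = vehicle wells; hits needed this value within 50% of zero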
Numbers without * were called inactive; i = inactive; . = not tested or not shown. No enrichment for hits. Share with any hit: about 3%.

SMILES | HIV Env fusion | eIF4H FP inh | CSC inhib | PABP polyA inh | Yeast UUG start | Rce1 inh | MT1-MMP act inh | MT1-MMP act inh RFP
CC(=O)Nc1ccc(NC(=O)N(c2ccccc2)c2ccccc2)cc1 | 3 | 0 | -18 | 12 | -12 | i | -1 | 0
CC(C)c1ccccc1NS(C)(=O)=O | . | 2 | -3 | -5 | . | i | . | .
O=C(Nc1ccccc1)N1CCCN(c2nccc(C(F)(F)F)n2)CC1 | 10 | -7 | -9 | 2 | -23 | i | 2 | 2
O=C(NCc1ccco1)c1cc(C(=O)C2CCCCC2)c[nH]1 | -2 | -2 | -16 | -4 | -19 | i | -1 | 3
CCc1ccccc1NC(=O)COC(=O)C1CC(=O)N(c2ccc(F)cc2)C1 (centres undefined) | -13 | 2 | -11 | -1 | -10 | i | 8 | 7
CN(CC(=O)Nc1ccc(F)c(F)c1F)C(=O)CC1CCCCC1 | 2 | . | . | . | -31 | . | 4 | 4
COc1cc(Br)c(CNc2cc(C)ccc2C)cc1OC | 18 | 8 | 33 | 4 | -15 | i | 3 | -21
Cc1ccc(CNC(=O)c2cccc3c2C(=O)c2ccc(N4CCCCC4)cc2S3(=O)=O)cc1 | 1 | . | -1 | . | -23 | . | -105 | 1
CC(C)CC(c1nnnn1Cc1ccccc1)N1CCC(C(N)=O)CC1 (centres undefined) | 6 | 5 | -3 | 6 | -8 | i | -4 | 1
COc1cc(-c2cc(OC)c(O)c(OC)c2)cc(OC)c1O | 78* | . | . | . | -2 | . | 10 | 7
N#CCCN1CCN(Cc2ccccc2)CCC1=O | 8 | -12 | 1 | -7 | 0 | i | 7 | 2
COc1cccc(N2CCN(c3ccc4nnc(CCC(=O)N5CCN(C)CC5)n4n3)CC2)c1 | 8 | -5 | -10 | -5 | -5 | i | -3 | 4
COCCNC(=O)COc1ccccc1Cl | . | -10 | -1 | -1 | -22 | i | 1 | 2
O=C(Nc1ccc(F)cc1)c1c(Cl)nc2ccccn12 | -22 | -11 | -12 | 8 | -6 | i | -1 | 2
N#CC(C(=O)NC1CCCCC1)c1nc2ccccc2nc1N1CCN(c2ccc(F)cc2)CC1 (centres undefined) | . | 6 | . | -3 | . | i | . | .
O=C(Cc1ccccc1)NN1C(=O)c2ccccc2C1=O | 14 | -2 | -9 | -1 | . | i | 0 | 2
Cc1nc2ccccn2c1C(=O)NC1CCCC1 | -21 | 5 | -10 | 5 | -14 | i | -3 | -2
COc1ccc(C)cc1Cn1nnc2ccccc21 | 11 | . | -3 | . | -26 | i | -2 | 0
COc1ccc(Nc2nc(N)c3ccccc3n2)c(OC)c1 | -62 | -5 | . | -3 | -13 | i | 39* | -4.3*
COc1ccc(C)cc1-n1nnnc1SCc1cn2ccsc2n1 | . | -2 | . | -14 | -31 | i | 2 | 2
COc1ccc(/C=C2\SC(=S)N(CCC(=O)Nc3ccc(O)cc3)C2=O)cc1 | -20 | 0 | 7 | -9 | -13 | i | -1 | -6
C=CCNc1nc(NCc2ccc(NC(C)=O)cc2)c2sc(-c3ccccc3)cc2n1 | -37 | . | . | . | -8 | . | 2 | -3
Cc1ccc(NC(=O)CSc2ccccn2)cc1S(=O)(=O)N1CCOCC1 | 10 | 4 | 9 | 0 | . | i | -3 | 2
CCOC(=O)C1=C(c2ccccc2)N2CCS(=O)(=O)N=C2S1 | -36 | -5 | 10 | 4 | -11 | i | 2 | 0
CCC1CCc2sc(C(=O)N(C)CC(=O)Nc3ccc(N4CCOCC4)cc3)cc2C1 (centres undefined) | -6 | . | 30 | . | 3 | . | 0 | -1
O=C(c1ccc2nccnc2c1)N1CCCC(Nc2ccc(F)c(F)c2)C1 (centres undefined) | 11 | -3 | 0 | 12 | 7 | i | -1 | 0
COc1ccc(S(=O)(=O)n2c(N)nc3ccccc32)cc1 | -16 | . | . | . | -17 | . | 3 | -2
CCC(CC)NC(=O)CO/N=C/c1ccc(Cl)cc1Cl | 5 | -6 | -7 | -5 | . | i | 5 | 2
CCc1ccc(Cn2ncc3c(C(=O)O)cc(C)nc32)cc1 | -2 | . | . | . | -25 | . | 1 | 1
Cc1nc2ccc(NC(=O)c3ccccc3)cc2s1 | -16 | 13 | 10 | 14 | . | i | 1 | 4

13 successive entries from above, quoted:
SMILES | HIV Env fusion | eIF4H FP inh | CSC inhib | PABP polyA inh | Yeast UUG start | Rce1 inh | MT1-MMP act inh | MT1-MMP act inh RFP
N#CC(C(=O)NC1CCCCC1)c1nc2ccccc2nc1N1CCN(c2ccc(F)cc2)CC1 (centres undefined) | . | 6 | . | -3 | . | i | . | .
O=C(Cc1ccccc1)NN1C(=O)c2ccccc2C1=O | 14 | -2 | -9 | -1 | . | i | 0 | 2
Cc1nc2ccccn2c1C(=O)NC1CCCC1 | -21 | 5 | -10 | 5 | -14 | i | -3 | -2
COc1ccc(C)cc1Cn1nnc2ccccc21 | 11 | . | -3 | . | -26 | i | -2 | 0
COc1ccc(Nc2nc(N)c3ccccc3n2)c(OC)c1 | -62 | -5 | . | -3 | -13 | i | 39* | -4.3*
COc1ccc(C)cc1-n1nnnc1SCc1cn2ccsc2n1 | . | -2 | . | -14 | -31 | i | 2 | 2
COc1ccc(/C=C2\SC(=S)N(CCC(=O)Nc3ccc(O)cc3)C2=O)cc1 | -20 | 0 | 7 | -9 | -13 | i | -1 | -6
C=CCNc1nc(NCc2ccc(NC(C)=O)cc2)c2sc(-c3ccccc3)cc2n1 | -37 | . | . | . | -8 | . | 2 | -3
Cc1ccc(NC(=O)CSc2ccccn2)cc1S(=O)(=O)N1CCOCC1 | 10 | 4 | 9 | 0 | . | i | -3 | 2
CCOC(=O)C1=C(c2ccccc2)N2CCS(=O)(=O)N=C2S1 | -36 | -5 | 10 | 4 | -11 | i | 2 | 0
CCC1CCc2sc(C(=O)N(C)CC(=O)Nc3ccc(N4CCOCC4)cc3)cc2C1 (centres undefined) | -6 | . | 30 | . | 3 | . | 0 | -1
O=C(c1ccc2nccnc2c1)N1CCCC(Nc2ccc(F)c(F)c2)C1 (centres undefined) | 11 | -3 | 0 | 12 | 7 | i | -1 | 0
COc1ccc(S(=O)(=O)n2c(N)nc3ccccc32)cc1 | -16 | . | . | . | -17 | . | 3 | -2

(cont.)
SMILES | HIV Env fusion | eIF4H FP inh | CSC inhib | PABP polyA inh | Yeast UUG start | Rce1 inh | MT1-MMP act inh | MT1-MMP act inh RFP
COc1ccccc1N1CCN(S(=O)(=O)CC23CCC(CC2=O)C3(C)C)CC1 (centres undefined) | . | 1 | -5 | -6 | -8 | . | -1 | 3
Cc1nn(-c2ccc(C(=O)OC(C)C)cc2)c(C)c1[N+](=O)[O-] | -21 | -4 | -9 | -1 | . | i | 7 | 6
Cc1n[nH]c(C)c1Cc1ccc(C(=O)O)cc1 | -14 | -5 | -6 | -2 | -19 | i | 6 | 5
O=C(CSc1nnc(C2CC2)n1CC1CCCO1)Nc1ccccc1Cl (centres undefined) | 13 | 2 | -9 | 14 | 5 | . | 3 | 3
Cc1ccc(CN2CC(C(=O)N3CC(C)CC(C)C3)CC2=O)cc1 (centres undefined) | 1 | . | -4 | . | -10 | i | 0 | 4
Cn1cnnc1SCC(=O)OCN1C(=O)c2ccccc2C1=O | . | -6 | -8 | -6 | -13 | i | 0 | 6
Cc1cc(/C=C2/NC(=O)NC2=O)c(C)n1-c1ccc(N2CCOCC2)cc1 | 25 | -4 | -1 | -13 | -10 | i | 2 | 4
COc1ccccc1NC(=O)COC(=O)c1ccc2c(c1)OCCO2 | 3 | . | . | . | -9 | . | -3 | -4
Cc1ccc(-n2c(C)cc(C(=O)CN3CCOCC3)c2C)cc1 | -25 | -6 | -5 | 0 | -16 | i | 0 | 0
Cc1ccc(NC(=O)CSc2nc(O)cc(=O)n2C)cc1 | -73 | 8 | -1 | 2 | -12 | i | -1 | 5
O=C(CCC(=O)Nc1ccccc1)NNS(=O)(=O)c1ccccc1[N+](=O)[O-] | -6 | 1 | 1 | -7 | -26 | i | -4 | -2
CCOC(=O)C1CCN(C(=O)c2ccccc2CCc2ccccc2)CC1 | 0 | 2 | -14 | 0 | 10 | i | -4 | 0
O=C(CSC1=NC(=O)C(Cc2ccccc2)C(=O)N1)Nc1ncccn1 (centres undefined) | -29 | 3 | . | 9 | . | i | . | .
CCOc1ccc(OCc2ccc(C(=O)N3CCCC(C)C3)cc2)cc1 (centres undefined) | -14 | 6 | -6 | -12 | . | i | 3 | -14
Cc1ccc(NP(=O)(Nc2ccc(C)cc2)Nc2ccc(C)cc2)cc1 | 9 | 5 | -9 | -8 | -10 | i | -6 | -5
COc1ccc2cc(C(c3nnnn3C3CCCC3)N3CCCCCC3)c3nnnn3c2c1 (centres undefined) | -135 | 6 | 0 | -16 | -4 | i | -9 | -11
CCCCCNc1nc(-c2ccccc2)nc(-n2ccnc2)n1 | 14 | -6 | -3 | 2 | -6 | i | -6 | -2
Cc1nc(Cc2nnc(SCC(=O)N3CCN(c4ccccc4)CC3)o2)cs1 | 2 | . | . | . | -1 | . | -4 | 0
COc1ccccc1CNc1nc2nc(C)c(Cl)c(=O)n2[nH]1 | -35 | -1 | 1 | -1 | 6 | i | -1 | 6
CC(C)(C)C(=O)CSc1nc2ncc(Br)cc2[nH]1 | . | -4 | -1 | -3 | -7 | i | -3 | -3

3 compounds already listed, arranged by the value under HIV Env fusion, largest number first:
compound | HIV Env fusion
CCCCCNc1nc(-c2ccccc2)nc(-n2ccnc2)n1 | 14
O=C(CCC(=O)Nc1ccccc1)NNS(=O)(=O)c1ccccc1[N+](=O)[O-] | -6
O=C(CSC1=NC(=O)C(Cc2ccccc2)C(=O)N1)Nc1ncccn1 (centres undefined) | -29

Next results follow.
SMILES | HIV Env fusion | eIF4H FP inh | CSC inhib | PABP polyA inh | Yeast UUG start | Rce1 inh | MT1-MMP act inh | MT1-MMP act inh RFP
Cc1nnc(SCC(=O)N2CCc3ccccc32)s1 | -11 | -7 | -11 | 1 | -20 | i | 2 | -3
COc1ccc(C(CNC(=O)c2cc(S(=O)(=O)N3CCCC3)ccc2Cl)N2CCCC2)cc1 (centres undefined) | 1 | . | . | . | 14 | . | -7 | -3
c1ccc(C(c2ccccc2)N2CCN(Cc3nc(-c4cnccn4)no3)CC2)cc1 | 6 | 5 | -2 | 5 | -6 | i | -7 | -2
CCc1noc(C)c1C(=O)OCC(=O)Nc1ccc2c(c1)OCO2 | -16 | . | 4 | . | -1 | . | -1 | -2
CCCSc1nc(O)c(C(c2ccc(OC)c(O)c2)c2c(O)nc(SCCC)n(C)c2=O)c(=O)n1C | 10 | -5 | 4 | 6 | -19 | i | -2 | -2
CCOC(=O)Cn1c(=O)cnc2ccccc21 | -26 | -1 | 6 | 14 | -12 | i | -8 | 5
CCCCCc1cccnc1 | 15 | 1 | -7 | 2 | -21 | i | -1 | 3
CCOC(=O)N1CCN(C(=O)Cc2c(C(=O)O)n(C)c3ccccc23)CC1 | 3 | -7 | -15 | -1 | . | i | 1 | -1
COc1cccc(C(=O)NNC(=O)C(=O)Nc2ccc(OC)cc2OC)c1 | -3 | 9 | . | -3 | 8 | i | 4 | 1
CCn1cc(C(=O)OCC(=O)Nc2ccccc2OC(F)F)c(=O)c2ccc(C)nc21 | -9 | . | . | . | -3 | . | 4 | 1
